Mtb growth = M. tuberculosis H37Rv growth inhibitors, H37Rv strain (AID 1626); M. tuberculosis H37Rv growth inhibition; higher % means a stronger effect; inhibition, % at 10 µM, or IC50 in µM where a hit was titrated; 220,000 tested, 0.95% active;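 active means confirmed in a dose series; inconclusive means inhibition above 80% but not taken into the dose series; inactive means below 80% or under 30% at every dose of the series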;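 further: bacteria incubated seven days before Alamar blue readout; 0% = bacteria only wells and 100% = bacteria with antibiotic wells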
YopH PTP inh = inhibitors of Yersinia enterocolitica YopH tyrosine phosphatase; AID 898; inhibition, %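 (about 10 µM by stock and volumes)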; fluorescence Ex485/Em525; 140,000 tested, 0.16% active;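 active means inhibition of 50% or more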;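 further: controls were vehicle for no effect and minimum signal wells for full effect; inactives centre near -20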
RecA splice inh = inhibitors of M. tuberculosis RecA intein splicing. inhibition, %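 (about 9 µM by stock and volumes)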. cell-free RecA intein splicing, fluorescence. 290,000 tested, 0.75% active. P9WHJ3; in the data active means inhibition above about 30%; inconclusive means no clear call, values can overlap the other calls;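 further: 0% = vehicle wells and 100% = reference inhibitor control wells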
Target sequence (P9WHJ3 whole entry, looked up, canonical isoform): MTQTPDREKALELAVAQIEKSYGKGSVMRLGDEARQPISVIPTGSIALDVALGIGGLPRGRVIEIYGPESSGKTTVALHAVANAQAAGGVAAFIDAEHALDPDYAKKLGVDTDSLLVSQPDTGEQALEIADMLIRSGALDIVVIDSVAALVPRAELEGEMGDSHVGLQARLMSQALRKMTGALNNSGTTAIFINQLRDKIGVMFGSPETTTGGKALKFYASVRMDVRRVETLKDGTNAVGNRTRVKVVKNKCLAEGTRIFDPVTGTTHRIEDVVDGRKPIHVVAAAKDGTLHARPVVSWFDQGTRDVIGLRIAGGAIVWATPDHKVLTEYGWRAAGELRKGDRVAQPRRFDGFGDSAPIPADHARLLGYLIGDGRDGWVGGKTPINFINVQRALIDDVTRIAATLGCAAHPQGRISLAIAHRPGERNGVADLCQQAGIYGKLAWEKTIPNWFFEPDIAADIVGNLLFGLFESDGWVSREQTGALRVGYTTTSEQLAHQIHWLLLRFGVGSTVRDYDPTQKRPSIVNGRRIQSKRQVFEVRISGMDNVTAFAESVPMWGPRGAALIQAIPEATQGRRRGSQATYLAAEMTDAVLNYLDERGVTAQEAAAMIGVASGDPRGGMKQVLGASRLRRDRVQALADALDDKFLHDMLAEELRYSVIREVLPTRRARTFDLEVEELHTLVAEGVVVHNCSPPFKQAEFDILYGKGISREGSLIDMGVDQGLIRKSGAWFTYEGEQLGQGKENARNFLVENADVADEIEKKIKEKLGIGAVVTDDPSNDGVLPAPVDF
Mtb bLac sens = beta-lactam sensitization of Mtb H37Rv. M. tuberculosis H37Rv growth with meropenem, percent inhibition; hits of this screen are not shown here. inhibition, % at 25 µM. 330,000 tested, 0.27% active;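 active means about 74% or more and at least 40 points above the plate without the antibiotic, then above 30% in a dose series; inconclusive means first-round hits that could not be retested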;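 further: growth measured after seven days incubation then overnight dye step; 0% = bacteria only wells and 100% = bacteria with antibiotic; twin plates without the antibiotic show which effects depend on it; some results filed as inactive read as strong as hits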
Arbovirus anti = arbovirus infection inhibition | arbovirus infection cell-based antiviral screen | inhibition, % at 10 µM | AID 1251 | 200,000 tested, 0.37% active;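 active means inhibition from about 30%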;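 further: bluetongue infection of BSR cells; cell survival read as ATP light after 72 h; 0% = infected wells without compound and 100% = uninfected wells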
* marks the source's active call; other numbers are inactive results; ? = inconclusive; · = not tested or not shown; & = joins results of further samples.

[1] O=C(O)CCS(=O)(=O)Cc1ccccc1F
[2] O=c1c([N+](=O)[O-])c(O)c2ccccc2n1Cc1ccccc1
[3] CCCc1cc(=O)[nH]c(SCC(=O)Nc2nonc2N)n1
[4] COCCSc1ccccc1C(=O)NCc1ccc(S(N)(=O)=O)cc1
[5] CCN(CC)c1ncnc2c1sc1nc(N3CCOCC3)c3c(c12)CCC3
[6] O=C(CN1C(=O)NC2(CCCCC2)C1=O)Nc1ccc(F)cc1

| Assay by compound | 1 | 2 | 3 | 4 | 5 | 6 |
| --- | --- | --- | --- | --- | --- | --- |
| YopH PTP inh | -30 | · | -31 | -22 | -38 | · |
| Arbovirus anti | 4 | · | 10 | -4 | -6 | -2 |
| Mtb growth | -6% | · | 7% | -6% | 7% | 2% |
| Mtb bLac sens | -2 | 3 | 4 | -7 | · | 19 |
| RecA splice inh | 0.2 | -2.7 | -1.5 | 0.6 | · | 2.4 |

[7] N=c1oc2ccccc2cc1C(=O)Nc1ccccc1
[8] O=C1C2C3C=CC(C4CC34)C2C(=O)N1/N=C/c1ccc([N+](=O)[O-])s1 (stereo unspecified)
[9] COC(=O)c1cc(C(=O)NC(C)(C)CC(C)(C)C)cc([N+](=O)[O-])c1
[10] O=C(Nc1ccc(Br)cc1F)c1ccc2c(c1)OCCO2
[11] CC(C)C[C@H](NC(=O)N1CCN(c2ccccc2)CC1)C(=O)O
[12] C=CCn1c(SCc2cccnc2)nnc1-c1ccncc1

| Assay by compound | 7 | 8 | 9 | 10 | 11 | 12 |
| --- | --- | --- | --- | --- | --- | --- |
| YopH PTP inh | · | -22 | · | · | -47 | -25 |
| Arbovirus anti | · | -2 | 0 | · | 4 | 3 |
| Mtb growth | · | 23% | 9% | · | 18% | -2% |
| Mtb bLac sens | -1 | 92 | -3 | -2 | 0 | 6 |
| RecA splice inh | 2.5 | -1.3 | -1.8 | 3.4 | -1.3 | -1.1 |

[13] O=C(CSc1ncccn1)Nn1cnnc1
[14] O=C(NCCc1ccccc1Cl)c1cc(COc2ccc(F)cc2F)on1
[15] CC(C)c1nc2oc3c(=O)[nH]cnc3c2c2c1COC(C)(C)C2
[16] O=C(Nc1ccc([N+](=O)[O-])cc1Br)c1cccnc1
[17] O=C(N/N=C/c1ccco1)c1cc(=O)[nH]c2ccccc12
[18] CCOC(=O)c1[nH]c(C)c(C(=O)NCCC2=CCCCC2)c1C

| Assay by compound | 13 | 14 | 15 | 16 | 17 | 18 |
| --- | --- | --- | --- | --- | --- | --- |
| YopH PTP inh | -18 | · | · | -25 | · | -9 |
| Arbovirus anti | 1 | · | · | 1 | 9 | 16 |
| Mtb growth | -14% | · | 2% | -5% | 0% | -5% |
| Mtb bLac sens | -9 | 23 | 11 | -1 | 2 | 5 |
| RecA splice inh | 3.0 | 18 | 2.8 | 1.2 | -3.8 | -0.9 |

[19] O=C(Nc1ccccc1)Nc1nnc(-c2ccccc2)o1
[20] C/C(N)=C(/C#N)C(=O)COC(=O)CCS(=O)(=O)c1ccccc1
[21] CN1CCC(N(C)c2ncnc3ccc(Br)cc23)CC1
[22] O=C(O)/C=C/C(=O)Nc1ccc(-c2ccccc2)cc1
[23] CC(=O)c1c(C)[nH]c(C(=O)N2CCN(c3cc(Cl)ccc3C)CC2)c1C
[24] Cn1c(C(O)c2ccc(Cl)cc2)nc(Cl)c1Cl (stereo unspecified)

| Assay by compound | 19 | 20 | 21 | 22 | 23 | 24 |
| --- | --- | --- | --- | --- | --- | --- |
| YopH PTP inh | -28 | -21 | -16 | · | -35 | -9 |
| Arbovirus anti | 3 | 0 | -4 | 3 | -2 | -5 |
| Mtb growth | 7% | · | 2% | ? | 0% | -12% |
| Mtb bLac sens | 75 | -1 | · | 95 | -10 | -13 |
| RecA splice inh | 2.9 | -1.5 | · | 7.8 | 3.0 | 0.1 |

[25] COc1ccc(CC(=O)NCC2CCCN(Cc3cccc(SC)c3)C2)cc1 (stereo unspecified)
[26] C=CCOc1ccc(C2C(C(=O)c3cccs3)=C(O)C(=O)N2c2nnc(C)s2)cc1 (stereo unspecified)
[27] CC1CCCCC1NC(=O)C1CCC(CNc2c(N3CCCCC3)c(=O)c2=O)CC1 (stereo unspecified)
[28] CNC(=S)N1N=C2c3ccccc3CCC2C1c1ccccc1Cl (stereo unspecified)
[29] CN1CCN(c2nc(-c3ccccc3O)nc3ccccc23)CC1
[30] O=C(COC(=O)CNC(=O)c1cccc(F)c1)NCCC1=CCCCC1

| Assay by compound | 25 | 26 | 27 | 28 | 29 | 30 |
| --- | --- | --- | --- | --- | --- | --- |
| YopH PTP inh | · | -51 | · | · | · | -12 |
| Arbovirus anti | · | · | · | · | · | -1 |
| Mtb growth | · | -12% | 1% | -1% | · | -2% |
| Mtb bLac sens | 2 | 4 | -7 | -15 | 1 | 0 |
| RecA splice inh | 1.5 | · | 0.0 | 3.2 | -1.5 | -6.7 |

[31] O=C(O)C/C(=C\c1cc(Cl)c2c(c1)OCO2)c1nc2ccccc2s1
[32] C[C@@H]1O[C@@H](OC[C@H]2O[C@@H](Oc3c(-c4ccc(O)c(O)c4)oc4cc(O)cc(O)c4c3=O)[C@H](O)[C@@H](O)[C@@H]2O)[C@H](O)[C@H](O)[C@H]1O
[33] C[C@@H](CSc1ccccc1)CN1CC[C@H](C(C)(C)C)CCC1=O
[34] COc1cccc(-c2ccc(NC(=O)C3CCCN(Cc4cnn(C)c4C)C3)cc2)c1 (stereo unspecified)
[35] Cc1ccc(C(=O)Nc2ccccc2C(=O)NC(C(=O)O)C(C)C)cc1 (stereo unspecified)
[36] COC(=O)CNC(=O)CN1C(=O)NC2(CCCc3ccccc32)C1=O (stereo unspecified)

| Assay by compound | 31 | 32 | 33 | 34 | 35 | 36 |
| --- | --- | --- | --- | --- | --- | --- |
| YopH PTP inh | · | · | · | · | -20 | · |
| Arbovirus anti | · | 5 | · | · | 1 | · |
| Mtb growth | · | -5%&1% | · | · | 17% | · |
| Mtb bLac sens | -1 | 0 | -9 | -9 | 11 | -4 |
| RecA splice inh | -3.7 | -3.0 | 17 | -2.6 | -1.9 | 0.0 |

[37] Cc1ccc(N=Cc2cc(Br)cc(Cl)c2O)cc1
[38] O=C(c1c(F)cccc1F)N1CCN(c2ncccn2)CC1
[39] CCOC(=O)CN1C(=O)S/C(=C/C=C/c2ccc(N(C)C)cc2)C1=O
[40] Cc1cccc(CN2CCN(C(=O)CCl)CC2)c1
[41] N#Cc1c(-c2ccc(F)cc2)nc(-c2ccccc2)[nH]c1=O
[42] O=C(Nc1ccc2c(c1)OCCO2)c1ccco1

| Assay by compound | 37 | 38 | 39 | 40 | 41 | 42 |
| --- | --- | --- | --- | --- | --- | --- |
| YopH PTP inh | · | 6 | -28 | -18 | · | -7 |
| Arbovirus anti | 4 | 3 | -6 | 10 | 6 | 7 |
| Mtb growth | 10% | 2% | 21% | -4% | 76% | -1% |
| Mtb bLac sens | -2 | -9 | 79 | 98 | 92 | -1 |
| RecA splice inh | -4.1 | 0.2 | 1.2 | 33* | -2.0 | -2.5 |

[43] O=C(NCc1ccc2c(c1)OCO2)c1ccc(N2CCCCCC2)c([N+](=O)[O-])c1
[44] CCN(CC)C(=O)Cn1c(=O)n(CCCC(=O)NCc2ccc3c(c2)OCO3)c(=O)c2sccc21
[45] COc1ccc(/C=N/Nc2nn3cnnc3c3ccccc23)cc1
[46] O=C(NCC1([N+](=O)[O-])CN(C(=O)c2ccccc2)CN(C(=O)c2ccccc2)C1)c1ccccc1
[47] O=C1Nc2ccc(Br)cc2C1(O)Cc1ccccn1 (stereo unspecified)
[48] COc1ccccc1OCCCCNCCO

| Assay by compound | 43 | 44 | 45 | 46 | 47 | 48 |
| --- | --- | --- | --- | --- | --- | --- |
| YopH PTP inh | -18 | · | · | · | -35 | 22 |
| Arbovirus anti | -11 | · | · | -1 | -2 | 6 |
| Mtb growth | -3% | · | -3% | -6% | -7% | -6% |
| Mtb bLac sens | -2 | 3 | 1 | -7 | -3 | 4 |
| RecA splice inh | -5.2 | -2.4 | -2.4 | · | 6.8 | 3.4 |

[49] CCn1c(/C=C/N(C(C)=O)c2ccccc2)[n+](CCCS(=O)(=O)[O-])c2cc(Cl)c(Cl)cc21
[50] CCCCN(C)C(=O)CCC(=O)Nc1ccc2nc(N3CCN(C)CC3)cc(C)c2c1
[51] COc1ccc(N(CC(=O)NCc2ccccc2)S(=O)(=O)c2c(C)n[nH]c2C)cc1
[52] Cc1ccc(C2CCN(C(=S)Nc3cccc(C)c3)C2)cc1 (stereo unspecified)
[53] COCC(C)n1c(C)cc(C(=O)COC(=O)c2c(NC(C)=O)sc(C)c2C)c1C (stereo unspecified)
[54] Cc1cc(NC(=O)CN2C(=O)NC3(CCCCC3C)C2=O)no1 (stereo unspecified)

| Assay by compound | 49 | 50 | 51 | 52 | 53 | 54 |
| --- | --- | --- | --- | --- | --- | --- |
| YopH PTP inh | · | · | · | · | · | 3 |
| Arbovirus anti | 3 | -4 | · | 8 | · | 8 |
| Mtb growth | 2% | -4% | · | 8% | -6% | 7% |
| Mtb bLac sens | 3 | -1 | 4 | 1 | 5 | -2 |
| RecA splice inh | -0.6 | -0.3 | 0.4 | -0.4 | -13 | -0.3 |

[55] CCCCNc1c([N+](=O)[O-])c(=O)n(C)c2ccccc12
[56] O=C1CCCN1c1ccc(S(=O)(=O)N2CCN(c3ccccc3)CC2)cc1
[57] CC(=O)c1sc(NC(=O)COc2ccc(Br)cc2)nc1C
[58] Cc1cccc(NC(=O)CSc2nnc(NC(=O)C3CCC3)s2)c1
[59] COc1ccccc1Nc1nc(N)nc(CSc2nc(C)cc(C)n2)n1
[60] O=C(O)[C@H](Cc1ccccc1)N1C(=O)c2ccncc2C1=O

| Assay by compound | 55 | 56 | 57 | 58 | 59 | 60 |
| --- | --- | --- | --- | --- | --- | --- |
| YopH PTP inh | · | · | · | · | -43 | -40 |
| Arbovirus anti | -7 | 1 | -2 | · | 7 | -2 |
| Mtb growth | -5% | -18% | 1% | · | -2% | -4% |
| Mtb bLac sens | -6 | 3 | -4 | -5 | -2 | -10 |
| RecA splice inh | · | -0.5 | -11 | -0.4 | -5.5 | -0.5 |

[61] Cc1csc(NC(=O)c2ccccc2C(=O)O)n1
[62] OC(CCN1CCCCC1)(c1ccccc1)c1ccccc1
[63] COc1cc(C(=S)N2CCOCC2)ccc1OS(=O)(=O)c1ccc(Cl)cc1
[64] O=C(Nc1cnccc1C(F)(F)F)NC1CCCCC1
[65] Nc1[nH]n(-c2ccccc2)c(=O)c1N=Nc1ccc2c(c1)OCCO2
[66] COc1ccnc(Oc2cc(Cl)cc(Cl)c2)c1C#N

| Assay by compound | 61 | 62 | 63 | 64 | 65 | 66 |
| --- | --- | --- | --- | --- | --- | --- |
| YopH PTP inh | -3 | -43 | · | · | · | · |
| Arbovirus anti | -1 | 17 | · | · | 6 | -7 |
| Mtb growth | -5% | -7% | · | -13% | 0% | 11% |
| Mtb bLac sens | 4 | 6 | 2 | -6 | 26 | -1 |
| RecA splice inh | -1.0 | 0.6 | 0.2 | 2.5 | 1.1 | · |

[67] NS(=O)(=O)c1cc(C(=O)O)c(NCc2ccco2)cc1Cl
[68] COCCn1c(SCC(=O)c2ccc(F)cc2)nnc1C(C)C
[69] O=C(Cn1c(=O)c(=O)n(Cc2ccccc2)c2ccc(Cl)cc21)Nc1cccc(F)c1
[70] O=C(NCc1cccc(C(F)(F)F)c1)C1CC(c2c(Cl)cccc2Cl)=NO1 (stereo unspecified)

| Assay by compound | 67 | 68 | 69 | 70 |
| --- | --- | --- | --- | --- |
| YopH PTP inh | · | -3 | -18 | -4 |
| Arbovirus anti | · | -3 | 10 | -23 |
| Mtb growth | -9% | -7% | -3% | 3% |
| Mtb bLac sens | -2 | -4 | 18 | 12 |
| RecA splice inh | -1.2 | -1.0 | 0.7 | 5.0 |

The list is partial; the hit share may differ from the screen's.
